# Bioassay records deposited in PubChem by several laboratories.
# MT1-MMP act inh: MT1-MMP (human) activation inhibition. P50281. HT1080 RFP-PRO-GFP cells, GFP/RFP ratio fluorescence, overnight; percent of plate control window, DMSO zero. GFP/RFP ratio change, % at 20 µM. 360,000 tested, 0.061% active. AID 651647;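 active = GFP/RFP ratio change of at least 30% with cell ATP level not reduced by more than half and red fluorescence within 50% of control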; note: strong numbers were not always called active
#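 Assay system: HT1080 RFP-PRO-GFP cells | Dosing: 20 µM single dose, 1% DMSO | Incubation: Cells overnight before dosing, compound overnight, 37 °C, 5% CO2 | Evaluation: GFP/RFP fluorescence ratio | Control set: DMSO-only wells and HT1080 RFP-L50D-GFP cell wells as references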
# Env fusion inh: blocks HIV Env-driven cell-cell fusion | HeLa-JRFL Env/CEM21 cell fusion, luciferase | inhibition, % at 12.3 µM | 360,000 tested, 1.1% active | AID 651610;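 active = mean replicate inhibition score of at least 50 and every replicate individually at or above 50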;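 note: 0% = plate neutral controls and 100% = maraviroc near 300 nM; one replicate is shown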
# MT1-MMP act inh RFP: second read-out of MT1-MMP act inh, no call of its own (marks repeat the call); RFP signal change, %; measured here: RFP expression control read;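 0 = vehicle wells; hits needed this value within 50% of zero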
# An asterisk follows results filed as active; & = joins results of further samples. Only part of the results is shown; count on the stated rates, not on these rows.
No.	Structure	MT1-MMP act inh	MT1-MMP act inh RFP	Env fusion inh
1	N#CC(c1ccccc1)c1ccc([N+](=O)[O-])cc1 (configuration not stated)	1	3	-4
2	CCS(=O)(=O)c1ccc(C=NNc2nc3ccccc3o2)cc1	0	0	0
3	COc1cc2[nH]c(C)c(-c3ccccc3)c(=O)c2cc1Cl	0	3	-16
4	Cn1c(=O)c2cccnc2c(=O)n1C	0	6	9
5	C=CCC[C@@H](CCCCC)OC(=O)/C=C/[C@@H](O)[C@H](O)C[C@H](O)CC=C	-4	-6	-5
6	Cc1ncc(CO)c(CO)c1OCC(O)CN1CCN(c2ccc(F)cc2)CC1 (configuration not stated)	4	-2	7
7	COC(=O)c1ccc(C)cc1C1CN=NC12Cc1cc(C)ccc1C2=O (configuration not stated)	-3	2	-2
8	CCOc1ccccc1-c1ccc(C(=O)NCc2ccc(Cl)cc2)o1	7	4	4
9	COC(=O)[C@]12CCCCC=C1N(Cc1cccc3ccccc13)C(=O)[C@H](CC(=O)NCC13CC4CC(CC(C4)C1)C3)C2	-14	-14	-10
10	COc1cc(OC)c(C2C=CC(=O)CC2)c(OC)c1 (configuration not stated)	-1	-4	14
11	O=C(Nc1ccc(F)cc1)C(c1ccnc2ccccc12)N1CCN(C(=O)c2ccco2)CC1 (configuration not stated)	0	3	-6
12	COc1ccccc1CCn1cnc(C)c1CC(C)C	-8	-1	17

# Next part
No.	Structure	MT1-MMP act inh	MT1-MMP act inh RFP	Env fusion inh
13	COc1ccc(C(C(=O)NC2CCCC2)n2c(Cc3cc(F)cc(F)c3)nc3ccccc32)cc1 (configuration not stated)	-3	-11	33
14	CCCCc1c(-c2cccc(F)c2)ncn1CCc1ccccc1OC	-9	-26	27
15	COc1ccc2nc3cc(Cl)ccc3c(Nc3ccc(O)c(CN4CCN(C)CC4)c3)c2c1	10	0	-30
16	C[C@@H](NC(=O)[C@@H]1CCCN1C(=O)[C@@H]1CCCN1C(=O)c1cccc2ccccc12)c1ccccc1	-1	1	3
17	COC(=O)Cn1c2ccccc2c(=O)n1C(C)CBr (configuration not stated)	4	4	3
18	C=CCNc1ncnc2c1ncn2[C@H]1CN(Cc2cc(OC)c(OC)c(OC)c2)C[C@@H](CO)O1	0	4	21
19	COc1ccc(NC(=O)C(c2ccc(C#N)cc2)n2c(=O)c(-c3ccco3)nc3ccccc32)cc1 (configuration not stated)	3	0	-65
20	Cc1cc2nc(-c3ccc(Cl)cc3)c(CC3CCCCC3)n2c(C)c1Br	-5	-4	16
21	COC1=C(N)C(=O)c2nc(C)ccc2C1=O	1	4	-8
22	Cc1cccc(-c2cnc(C(O)c3cc(C)cc(C)c3)[nH]2)c1 (configuration not stated)	-1	-2	11
23	O=C(O)CCCCCN1C(=O)/C(=C/c2cn(-c3ccccc3)nc2-c2cccs2)SC1=S	1	-8	11
24	O=C(NCCN1CCC(n2c(=O)[nH]c3ccccc32)CC1)c1ccc(F)cc1Cl	4	-4	-6

# 15 entries from above, with values under each structure:
# Values in the order: MT1-MMP act inh | MT1-MMP act inh RFP | Env fusion inh
4: Cn1c(=O)c2cccnc2c(=O)n1C
  0 | 6 | 9
5: C=CCC[C@@H](CCCCC)OC(=O)/C=C/[C@@H](O)[C@H](O)C[C@H](O)CC=C
  -4 | -6 | -5
6: Cc1ncc(CO)c(CO)c1OCC(O)CN1CCN(c2ccc(F)cc2)CC1 (configuration not stated)
  4 | -2 | 7
7: COC(=O)c1ccc(C)cc1C1CN=NC12Cc1cc(C)ccc1C2=O (configuration not stated)
  -3 | 2 | -2
8: CCOc1ccccc1-c1ccc(C(=O)NCc2ccc(Cl)cc2)o1
  7 | 4 | 4
9: COC(=O)[C@]12CCCCC=C1N(Cc1cccc3ccccc13)C(=O)[C@H](CC(=O)NCC13CC4CC(CC(C4)C1)C3)C2
  -14 | -14 | -10
10: COc1cc(OC)c(C2C=CC(=O)CC2)c(OC)c1 (configuration not stated)
  -1 | -4 | 14
11: O=C(Nc1ccc(F)cc1)C(c1ccnc2ccccc12)N1CCN(C(=O)c2ccco2)CC1 (configuration not stated)
  0 | 3 | -6
12: COc1ccccc1CCn1cnc(C)c1CC(C)C
  -8 | -1 | 17
13: COc1ccc(C(C(=O)NC2CCCC2)n2c(Cc3cc(F)cc(F)c3)nc3ccccc32)cc1 (configuration not stated)
  -3 | -11 | 33
14: CCCCc1c(-c2cccc(F)c2)ncn1CCc1ccccc1OC
  -9 | -26 | 27
15: COc1ccc2nc3cc(Cl)ccc3c(Nc3ccc(O)c(CN4CCN(C)CC4)c3)c2c1
  10 | 0 | -30
16: C[C@@H](NC(=O)[C@@H]1CCCN1C(=O)[C@@H]1CCCN1C(=O)c1cccc2ccccc12)c1ccccc1
  -1 | 1 | 3
17: COC(=O)Cn1c2ccccc2c(=O)n1C(C)CBr (configuration not stated)
  4 | 4 | 3
18: C=CCNc1ncnc2c1ncn2[C@H]1CN(Cc2cc(OC)c(OC)c(OC)c2)C[C@@H](CO)O1
  0 | 4 | 21

# Additional records follow.
No.	Structure	MT1-MMP act inh	MT1-MMP act inh RFP	Env fusion inh
25	COCCn1c(-c2ccc(C)cc2)nc2c(c(=O)c3ccccc3n2C)c1=O	2	-1	1
26	Cc1cc(Br)cn2c(Cc3ccccc3)c(C3CCCCC3)nc12	-3	-2	20
27	CSCC[C@H](NC(=O)c1cccc(S(=O)(=O)N2CCCCCC2)c1)c1nc2ccccc2[nH]1	-3	-7	2
28	O=C(C=P(c1ccccc1)(c1ccccc1)c1ccccc1)c1ccccc1-c1ccccc1C(=O)C=P(c1ccccc1)(c1ccccc1)c1ccccc1	-18	-32	6
29	CC(C)C(NCC(=O)Nc1ccccc1C(=O)NC1CC1)c1ccccc1 (configuration not stated)	-3	-2	1
30	O=C(NCc1ccccc1)C(c1ccco1)N1CCN(C(=O)C2CCCO2)CC1 (configuration not stated)	3	5	12
31	Nc1ccc2c(c1)C(O)c1cccc(C(=O)O)c1-2 (configuration not stated)	0	0	-15
32	CCC(c1nnnn1-c1ccc2c(c1)OCCO2)N1CCN(c2ncccc2C(F)(F)F)CC1 (configuration not stated)	-3&5	-20&-6	-7&13
33	CCCCc1c(-c2ccc(Br)cc2)ncn1CCc1ccccc1OC	-16	-33	25
34	CCOC(=O)[C@]12CCC=C1N(Cc1cccc3ccccc13)C(=O)[C@H](CC(=O)N1CCN(C(=O)c3ccco3)CC1)C2	-3	-5	-38
35	CN(Cc1cn(Cc2cccc(Cl)c2)nn1)C1CN(Cc2cn(Cc3cccc(Cl)c3)nn2)S(=O)(=O)C1 (configuration not stated)	2	-4	-1
36	CCOC(=O)/C=c1/s/c(=C\c2c(OC)ccc3ccccc23)c(=O)n1CC(=O)NCC1CCCO1 (configuration not stated)	-9	-9	-66

# More entries.
No.	Structure	MT1-MMP act inh	MT1-MMP act inh RFP	Env fusion inh
37	COc1cc(OC)cc(-c2c(Sc3ccccc3)c3cc(-c4cnc(N5CCOCC5)nc4)ccc3n2C)c1	1	0	27
38	O=C(Nc1c(Cl)cc2c(c1Cl)Cc1cc([N+](=O)[O-])ccc1-2)C(Cl)Cl	-1	-4	29
39	Cc1ccc(-c2nc3ccc(C)cn3c2CC2CCCCC2)cc1	-9	3	0
40	Cc1[nH]c2ccccc2c(=O)c1CNCc1ccccc1	0	2	-1
41	CCCCn1nnnc1C1(C)CCC(=O)N1C1CC1 (configuration not stated)	3	4	16
42	O=C1CN(S(=O)(=O)c2cccc(Br)c2)CCN1	0	2	8
43	COc1ccccc1NS(=O)(=O)c1cc(NC(=O)c2cccc(S(=O)(=O)N(C)C)c2)ccc1N1CCOCC1	8	-5	-1
44	CCOC(=O)[C@]12CCC=C1N(Cc1ccco1)C(=O)[C@H](CC(=O)NCc1cccc3ccccc13)C2	3	-1	-25
45	O=C(C[n+]1ccc2ccccc2c1)c1ccc2ccc3ccccc3c2c1	2	6	-1
46	COc1ccc(C2(SCC(N)C(=O)O)c3ccccc3-c3ccccc32)cc1 (configuration not stated)	-3	-6	15
47	O=C(NCc1ccco1)C1C(=O)Nc2ccccc2C(=O)N1C1CCCCC1 (configuration not stated)	0	4	8
48	COC(=O)C1=CN(c2ccc(Oc3ccccc3)cc2)C(N)=C(C#N)C1c1cccc(F)c1 (configuration not stated)	-3	-3	10

# Carrying on:
No.	Structure	MT1-MMP act inh	MT1-MMP act inh RFP	Env fusion inh
49	CCOC(=O)C(=O)N(C)c1c(CC)nc2c(OCc3ccccc3OC)cccn12	-1	2	-130
50	CCc1cc(-c2nnn(CCC3COCCO3)c2CC)cc(CC)c1-c1cn(CCc2c[nH]c3ccccc23)nn1 (configuration not stated)	3	-12	-4
51	Nc1nc2ccc(Cl)cc2cc1C(=O)NCCCN1CCOCC1	0	5	-47
52	COC(=O)Cn1c2ccccc2c(=O)n1C(C)C	5	6	-12
53	COc1ccc(N2CC(C)(C)[C@H](CC(=O)Nc3ccccc3)C2=O)cc1	1	3	-4
54	CC1OC(COCc2ccccc2)Cc2[nH][nH]c(=O)c21 (configuration not stated)	1	2	-8
55	Cc1ccc(CC2(OCCN(C)C)CCC(C(C)(C)C)CC2)cc1 (configuration not stated)	2	-3	7
56	O=C1NC2(CCCCC2)OC12CCCCC2	3	3	8
57	CC(C)NC(=O)C1(C)CN(S(C)(=O)=O)CC(=O)N1CCc1ccccc1F (configuration not stated)	1	5	-12
58	O=C1NC[C@H](Cc2ccc(O)cc2)N(C[C@@H]2CCCN2C[C@H](Cc2ccccc2)N2C[C@H](Cc3ccc(O)cc3)N(CC3CCCCCC3)C(=O)C2=O)C1=O	-2	2	-3
59	COC(=O)C1=CN(c2ccc(Oc3ccccc3)cc2)C(N)=C(C#N)C1c1ccccc1 (configuration not stated)	-2	-3	3
60	Nc1c(Br)cc(Br)c2c1-c1ccc([N+](=O)[O-])cc1C2	3	2	18

# More compounds follow.
No.	Structure	MT1-MMP act inh	MT1-MMP act inh RFP	Env fusion inh
61	COC(=O)[C@]12CCCCC=C1N(Cc1cccc3ccccc13)C(=O)[C@H](CC(=O)N1CCC(c3ccccc3)CC1)C2	-6	-10	24
62	COc1cc(N(C)C)ccc1[C@]1(O)C(=O)N(C)c2ccc(Br)cc21	7	2	6
63	COc1cc(OC)c(C=NNC(=S)NC23CC4CC(CC(C4)C2)C3)c(OC)c1	3	-6	17
64	O=C(CNC(=O)c1ccc(F)cc1)NCc1ccc(S(=O)(=O)N2CCOCC2)cc1	-7	1	9
65	COc1cccc2nc3c(C(=O)NCCN(C)C)cccc3cc12	5	6	-175
66	COc1cc(OC)c(-c2oc3ccccc3c(=O)c2O)c(OC)c1	5	-4	-30
67	Cc1cccc(C2NC(=O)c3ccccc3N2)c1 (configuration not stated)	6	-9	-100
68	O=C(c1ccco1)N1CCN(C(=O)c2ccco2)CC1	0	4	-13
69	O=C1OCC2=C1C(c1ccc(Cl)cc1)c1cc3c(cc1O2)OCO3 (configuration not stated)	5	-8	19
70	CCC(=O)N1Cc2cc(C(=O)N(C)C)nc(-c3cccc(-c4cncnc4)c3)c2[C@@H]1CCO	4	5	-248
71	CCC(C)C(=O)OC1CCC=C2C=CC(C)C(CCC3CC(O)CC(=O)O3)C21 (configuration not stated)	-5	-4	50
72	CCN(C)C1CN(Cc2cn(Cc3ccc(F)cc3)nn2)S(=O)(=O)C1 (configuration not stated)	3	6	-20

# (next part)
No.	Structure	MT1-MMP act inh	MT1-MMP act inh RFP	Env fusion inh
73	Cn1cc([C@]2(O)C(=O)Nc3ccccc32)c2ccccc21	-1	6	3
74	CC(=O)N1CCC(c2nc3ccccc3n2C(C)C(=O)NCc2ccccc2)CC1 (configuration not stated)	-2	-3	10
75	c1ccc2c(c1)c1c(c3ccccc32)CN2CCCC2C1 (configuration not stated)	-3	-1	-10
76	O=C(COC(=O)c1ccc(Cl)cc1)NC(=O)NC1CCCC1	2	0	7
77	COc1ccc(C(=O)c2[nH]c(N)c(C(N)=O)c2-c2ccc(OC)c(OC)c2)cc1	0	0	-29
78	CSCCC(C(=O)NC1CCCC1)n1c(C2CC2)nc2ccccc21 (configuration not stated)	5	3	3
79	Clc1nnc(NC2CCCCC2)c(Cl)c1Cl	8	-2	-20
80	CCN1CCN(C(=O)c2cc(S(=O)(=O)N3CC(C)CC(C)C3)ccc2Cl)CC1 (configuration not stated)	4	2	-19
81	CN(C)c1cccc(F)c1C(=O)NC(=O)Nc1ccc(Cl)cc1	-2	-9	-68
82	O=C(NC1CCCCC1)c1nc(-c2c(F)cccc2F)oc1-c1ccccc1	-4	-5	3
83	Nc1[nH]c(C(=O)c2ccccc2)c(-c2ccc(Br)cc2)c1C(=O)c1cccs1	0	4	-124
84	O=C(NCc1ccncc1)[C@@H]1CCCN1C(=O)[C@H]1CCCN1C(=O)c1c(F)cccc1F	-2	6	12

# Continuation:
No.	Structure	MT1-MMP act inh	MT1-MMP act inh RFP	Env fusion inh
85	NC(=S)n1[nH]c(-c2ccc([N+](=O)[O-])cc2)c(N=Nc2cccc([N+](=O)[O-])c2)c1=O	-12	-42	63*
86	FC(F)(F)c1cc(Cc2nc3ccccc3n2C(CCc2ccccc2)c2nc3ccccc3[nH]2)cc(C(F)(F)F)c1 (configuration not stated)	-5	-9	-26
87	CC(C)C[C@H]1CN([C@@H](CC(C)C)CN2CCCC2CN2C(=S)NC[C@@H]2Cc2ccccc2)C(=S)N1CC1CCCCC1 (some centres not stated)	-2	-11	0
88	O=c1[nH]c2c(c(=O)n1-c1ccccc1)CCO2	1	3	-43
89	CCOc1ccc(CCN2C(=O)C(=O)N([C@@H](CC(C)C)CN3CCC[C@H]3CN3C(=O)C(=O)NC[C@@H]3Cc3ccccc3)C[C@@H]2Cc2ccc(O)cc2)cc1	5	-3	-79
